High-throughput results as filed in PubChem.
nsP2pro primary = Primary qHTS for inhibitors of NSP2Pro chikungunya virus (CHIKV) | actives 1.1% (n = 31,000) | FRET peptide cleavage, nsP2pro, fluorescence 1 h | Potency, µM (highest dose often 24.9 µM), without a hit: at the top dose activity change, negative = inhibition, hits mostly inhibitors | AID 1964107, 2024; active means well fitted inhibition curve with a large enough effect; inconclusive means small, poorly fitted or top-dose-only effect; inactive means no such curve, though single readings can be large or run the other way; also: nearly all actives have a fitted effect of over 60% in size; a reference inhibitor and vehicle were the controls
* hit, by the source's call; i = inactive; ? = inconclusive; & = joins results of further samples; [ ] = another dose, or the depositor's remark. % is scaled to controls: 0 for no effect and ±100 for the full control effect; potency is read from the fitted curve at half-maximal effect. Only part of the results is shown; the hit share may differ from the screen's.

SMILES	nsP2pro primary
O=C(CCCc1ccccc1)NC1CC(=O)N(c2ccc(Cl)cc2)C1 (configuration not stated)	-3%
Cc1cccc(-c2ccc3ncnc(NCc4cccs4)c3c2)c1	i
Cc1ccc(CNC(=O)N2CCCC3(CCC(=O)N(CC4CC4)C3)C2)cc1 (configuration not stated)	i
COc1cc(O)c(C(CC(=O)N2CCOCC2)c2ccc3c(c2)OCO3)c(OC)c1 (configuration not stated)	-1%
CCOCCCNC(=O)c1cc2cn(C3CC3)cc2s1	-25%
Cc1cn2cc(C(=O)N(C)CCO)cc(N[C@@H]3CCOc4cccc(C)c43)c2n1	-15%
COc1ccc(Cl)cc1NC(=O)c1c(NCc2cccnc2)sc2c1CCCC2	?
CN(C)c1ccc(CNC(=O)C2CCN(S(=O)(=O)c3ccc4[nH]c(=O)ccc4c3)CC2)cc1	?
CN1C(=O)N(C)C2(CCN(CCc3ccccc3)C2)C1=O (configuration not stated)	0%
Cc1ccc(S(N)(=O)=O)cc1C(=O)N1CCCn2nc(C(C)O)cc2C1 (configuration not stated)	0%
CN1CCN(CCCNC(=O)C2(CCO)CCN(Cc3ccccc3)C2)CC1 (configuration not stated)	i
CCN1CCN(c2nnc(-n3cccc3C(=O)Nc3cccc(OC)c3)s2)CC1	-15%
O=C(c1ccnc(CC2CC(=O)N(c3ccccc3)C2)c1)N1CCCCC1 (configuration not stated)	-2%
COCC(=O)N1CCC(O)(c2csc(CN3CCc4ccccc4C3)n2)CC1	i
COc1cc(C(=O)Nc2cccc(OCc3cc(=O)n4c(C)csc4n3)c2)cc(OC)c1OC	0%
C[C@H](CCC(=O)O)[C@H]1CC[C@H]2[C@@H]3C[C@H](O)[C@@H]4C[C@H](O)CC[C@]4(C)[C@H]3CC[C@]12C	11%
Cc1nc(Nc2ccccc2)c2nc(-c3ccccc3)n(CCN3CCOCC3)c2n1	-8%
N[C@@H]1C[C@H]1c1ccccc1	-6%
COCCn1nc2n(c1=O)CCN(Cc1cccc(OC)n1)CC2	4%
Cc1cccc(N2CCN(C(=O)CN3C(=O)COc4ccc(S(=O)(=O)N5CCC(C)CC5)cc43)CC2)c1C	-7%
Cc1ccc2c(c1)c1c(c(=O)n(Cc3ccccc3)c(=O)n1CC(=O)NCc1ccccc1Cl)n2C	-7%
O=C(O)CN1C(=O)N/C(=C\c2cccn2-c2ccc(P(=O)(O)O)cc2)C1=O	-4%
O=C(NCc1ccccn1)C1CCN(c2cc(C3CC(O)C3)ncn2)CC1 (configuration not stated)	i
CC(=O)c1ccc(-c2ccc3ncnc(NCc4ccc(C)o4)c3c2)o1	?

Molecules listed so far that have sulfur:
SMILES	nsP2pro primary
Cc1cccc(-c2ccc3ncnc(NCc4cccs4)c3c2)c1	i
CCOCCCNC(=O)c1cc2cn(C3CC3)cc2s1	-25%
COc1ccc(Cl)cc1NC(=O)c1c(NCc2cccnc2)sc2c1CCCC2	?
CN(C)c1ccc(CNC(=O)C2CCN(S(=O)(=O)c3ccc4[nH]c(=O)ccc4c3)CC2)cc1	?
Cc1ccc(S(N)(=O)=O)cc1C(=O)N1CCCn2nc(C(C)O)cc2C1 (configuration not stated)	0%
CCN1CCN(c2nnc(-n3cccc3C(=O)Nc3cccc(OC)c3)s2)CC1	-15%
COCC(=O)N1CCC(O)(c2csc(CN3CCc4ccccc4C3)n2)CC1	i
COc1cc(C(=O)Nc2cccc(OCc3cc(=O)n4c(C)csc4n3)c2)cc(OC)c1OC	0%
Cc1cccc(N2CCN(C(=O)CN3C(=O)COc4ccc(S(=O)(=O)N5CCC(C)CC5)cc43)CC2)c1C	-7%

Four of these compounds, reformatted:
| canonical_smiles | nsP2pro primary |
| --- | --- |
| COCCn1nc2n(c1=O)CCN(Cc1cccc(OC)n1)CC2 | 4% |
| Cc1cccc(N2CCN(C(=O)CN3C(=O)COc4ccc(S(=O)(=O)N5CCC(C)CC5)cc43)CC2)c1C | -7% |
| Cc1ccc2c(c1)c1c(c(=O)n(Cc3ccccc3)c(=O)n1CC(=O)NCc1ccccc1Cl)n2C | -7% |
| O=C(O)CN1C(=O)N/C(=C\c2cccn2-c2ccc(P(=O)(O)O)cc2)C1=O | -4% |

(list continues)
SMILES	nsP2pro primary
COc1cccc(-c2cc(C(=O)N3CCN(c4ncccn4)CC3)c3cnn(C)c3n2)c1	i
O=C(/C=C/c1ccccc1)OCc1ccccc1	-4%
Cc1ccc2c(c1)[C@]13CCCC[C@@H]1[C@H](C2)N(C)CC3	-5%
O=S(=O)(c1ccccc1)N(CC(F)(F)F)c1ccc(C(O)(C(F)(F)F)C(F)(F)F)cc1	-9%&2%
Cc1cccc(OCC(=O)Nc2ccc3nc(SCc4ccccc4)sc3c2)c1	-24%
FC(F)(F)c1ccccc1-c1nc(NCc2ccc(-c3cccnc3)cc2)c2sccc2n1	-3%
Cc1noc2c(NCCc3ccccn3)cc(-c3ccccn3)nc12	i
CN(C(=O)CCS(=O)(=O)c1ccccc1)C1CCc2nn(C)c(=O)n2CC1 (configuration not stated)	4%
CC1(CO)CC2C(O)C(=O)C3(CO)CC3(C)C2C1 (configuration not stated)	-12%
Cc1ccc(Cl)cc1NC(=O)N1CCC(CN2CCCCCC2)CC1	-24%
CCOC(=O)c1nnc(N[S+](=O)([O-])c2ccc(NC(=O)Cc3ccc(Cl)c(Cl)c3)cc2)s1	i
O=C(CCCN1CCC(O)(c2ccc(Cl)cc2)CC1)c1ccc(F)cc1	2%&-6%

Copied from the list:
CC1(CO)CC2C(O)C(=O)C3(CO)CC3(C)C2C1 (configuration not stated) in nsP2pro primary = -12%
Cc1ccc2c(c1)[C@]13CCCC[C@@H]1[C@H](C2)N(C)CC3 in nsP2pro primary = -5%
O=C(CCCN1CCC(O)(c2ccc(Cl)cc2)CC1)c1ccc(F)cc1 in nsP2pro primary = 2%&-6%

Further entries follow.
SMILES	nsP2pro primary
CCc1nn(CC(=O)NC(C)CC)c(=O)c2cc3c(OC)cccc3n12 (configuration not stated)	-21%
Cc1ccc(-n2ncc3c(N(CC(C)C)CC(C)C)ncnc32)c(C)c1	?
Cc1ccc2c(c1C)NC(=O)CC2c1ccc(Cl)cc1Cl (configuration not stated)	-16%
CSc1ncc(C(=O)NCc2ccccc2F)c(-c2ccccc2)n1	-6%
O=C(c1cccnc1)N1CCC2(CCCN(C3CCOCC3)C2=O)C1 (configuration not stated)	-4%
CCCCC[C@H](O)/C=C/[C@@H]1[C@@H](C/C=C/CCCC(=O)O)[C@@H](O)C[C@H]1O	10%
FC(F)(F)c1cccc(-c2nnn3c2nc(NC2CCCCC2)c2ccccc23)c1	-1%
COc1ccc(CC(=O)NC2CCN(c3nnc4cccc(C)n34)CC2)cc1	-28%
O=C(O[C@H]1[C@@H]2C=CO[C@@H](O[C@@H]3O[C@H](CO)[C@@H](O)[C@H](O)[C@H]3O)[C@@H]2[C@@]2(CO)O[C@@H]12)c1ccc(O)cc1	12%[10 µM]
C[C@@H]1O[C@@H](O[C@H]2[C@H](OC(=O)[C@]34CCC(C)(C)C[C@H]3C3=CCC5[C@@]6(C)C[C@H](O)[C@H](O[C@@H]7O[C@H](CO)[C@@H](O)[C@H](O)[C@H]7O)[C@@](C)(CO)C6[C@H](O)C[C@@]5(C)[C@]3(C)CC4)OC[C@H](O)[C@@H]2O)[C@H](O)[C@H](O)[C@H]1O[C@@H]1OC[C@@H](O)[C@H](O[C@@H]2OC[C@](O)(CO)[C@H]2O)[C@H]1O (some centres not stated)	?
Cn1ccnc1-c1cn(Cc2ccccc2Cn2cccn2)nn1	?
O=C(Nc1ccc(OC(F)(F)F)cc1)C1CCCN(S(=O)(=O)c2cccc3nonc23)C1 (configuration not stated)	-3%
FC(F)Oc1ccc(C2=Nn3c(nnc3-c3ccccc3C(F)(F)F)SC2)cc1OCC1CC1	3%
CCOC(=O)c1ccc(NC(=O)CSc2nccn2Cc2ccc(OC)cc2)cc1	-23%
O=C1COc2cc(S(=O)(=O)CCC(=O)N3CCN(c4ccccc4F)CC3)c(Cl)cc2N1	-21%
Cc1nnc2n1CCC(NC(=O)CCCc1nc3ccccc3s1)CC2 (configuration not stated)	i
O=C(CCc1nc(-c2cccs2)no1)Nc1ccccc1[N+](=O)[O-]	-10%
CC1CN(C(=O)CCC(=O)NCc2ccc(F)cc2)c2cc(Cl)ccc2O1 (configuration not stated)	-8%
CN(Cc1cnn(-c2ccc(F)cc2)c1)c1cc(C2CC(O)C2)ncn1 (configuration not stated)	-1%
COc1cc(NC(=O)CSc2nc(C)c(C(=O)Nc3ccccc3)c(-c3ccc(OC)c(OC)c3)c2C#N)c(OC)cc1Cl	-17%
O=C1NCCOCCCN(C(=O)C2(c3ccccc3)CC2)[C@H]2CCCC[C@@H]12	i
CC(C)=CC[C@@H](O)C1=CC(=O)c2c(O)ccc(O)c2C1=O	-36%
COc1ccc(C(=O)N[C@H](C)c2c(-c3ccc(F)cc3)noc2C(=O)O)cc1	?
CN=C(NS(=O)(=O)c1ccc(Cl)cc1)N1C[C@H](c2ccccc2)C(c2ccc(Cl)cc2)=N1	-8%

3 records picked at random from the list so far, as already listed:
SMILES	nsP2pro primary
CN=C(NS(=O)(=O)c1ccc(Cl)cc1)N1C[C@H](c2ccccc2)C(c2ccc(Cl)cc2)=N1	-8%
O=C(CCc1nc(-c2cccs2)no1)Nc1ccccc1[N+](=O)[O-]	-10%
COc1ccc(C(=O)N[C@H](C)c2c(-c3ccc(F)cc3)noc2C(=O)O)cc1	?

(list continues)
SMILES	nsP2pro primary
O=C(CCc1ccccc1)N1CC(Oc2ccccc2-c2nc(-c3ccccc3)no2)C1	?
CCNC(=O)[C@@H]1C[C@H](NC(=O)c2ccc(=O)n(C)c2)CN1Cc1ccoc1	?
C/C(=C\c1csc(C)n1)[C@@H]1C[C@@H]2O[C@]2(C)CCC[C@H](C)[C@H](O)[C@@H](C)C(=O)C(C)(C)[C@@H](O)CC(=O)N1	-1%
CNCCc1ccccn1	-28%
CNC(=O)c1cc(C)nc2onc(C3CCCN(C(=O)Cc4ccc(OC)cc4)C3)c12 (configuration not stated)	-8%
Cc1ccnc(C(=S)N2CCN(c3cccc(C(F)(F)F)c3)CC2)c1	-1%
CCN1CCN(c2ncc3c(n2)CCN(Cc2cccc(F)c2F)C3)CC1	?
CCCCC(CC)COC(=O)c1ccc(N(C)C)cc1 (configuration not stated)	-11%
CCOc1cccc(C2c3[nH]c4ccccc4c3CCN2C(=O)CCc2ccccc2)c1 (configuration not stated)	-24%
Cc1ccc(NC(=O)N2CCCC(c3nnc(CN(C)C)n3C)C2)cc1C (configuration not stated)	1%
Cc1cnc(N2CCC(C(N)=O)CC2)nc1-c1cccc(N(C)C)c1	4%
CS(=O)(=O)N(Cc1ccco1)CC(O)Cn1c2ccccc2c2ccccc21 (configuration not stated)	-14%
COc1cccc(CC(=O)N2CCCCCCN(C)C(=O)[C@H]3CCC[C@H]32)c1	-9%
CC(=O)Nc1nonc1-c1nnc(SCc2ccc(F)cc2Cl)n1C	-18%
COc1ccc(OC)c(S(=O)(=O)N2CCN(Cc3nc4ccc(C)cc4o3)CC2)c1	-11%
CCCS(=O)(=O)N1CCCC(Cc2noc(-c3cnccn3)n2)C1 (configuration not stated)	0%
Cc1cc(OCCCSc2nc(-c3ccc(C(C)(C)C)cc3)nc3cc(=O)[nH]n23)ccc1Cl	i
CC(C)(C)C(=O)Nc1c(C(=O)N2CCN(c3ccc(F)cc3)CC2)oc2ccccc12	-28%
CC[C@H]1[C@@H](O)[C@@H]2[C@H](CC[C@]3(C)[C@@H]([C@H](C)CCC(=O)O)CC[C@@H]23)[C@@]2(C)CC[C@@H](O)C[C@@H]12	0%
COC(=O)C1=CO[C@@H](O[C@@H]2O[C@H](CO)[C@@H](O)[C@H](O)[C@H]2O)[C@H]2[C@@H]1C=C[C@]21C=C([C@H](C)OC(=O)/C=C/c2ccc(O)cc2)C(=O)O1	1.6µM*
NCCCC[C@H](N[C@@H](CCc1ccccc1)C(=O)O)C(=O)N1CCC[C@H]1C(=O)O	?
O=C(CCSCc1ccccc1)N1C[C@@H](CN2CCOCC2)[C@@H](CO)C1	-5%
Fc1cc(Nc2nc(-c3ccncc3)nc3ccccc23)ccc1-c1ccc(F)c(F)c1F	1%
COc1ccccc1N(C)C(=O)Cn1c(=O)oc2cc(S(=O)(=O)N3CCCC3)ccc21	-12%
CCOC(=O)c1c(-c2ccc(C)cc2C)csc1NC(=O)c1ccccc1Cl	-22%
CCOc1ccc(NS(=O)(=O)c2c(C)nc3sc(CC)nn3c2=O)cc1	-11%
O=C1CN(CC(=O)N2CCC3(CC2)OCCCC3O)C(=O)N1 (configuration not stated)	-3%
c1cncc(CN2CC(N3CCc4ccccc43)C2)c1	?
COc1ccc(F)cc1-c1ccc(CN2CCC(NC(=O)c3ccc(Cl)cc3)C2)cc1 (configuration not stated)	i
c1ccc(-c2csc(N3CCOCC3)n2)cc1	-19%
CC(C)(C)OC(=O)N1CCC(c2c(C(=O)NCc3ccco3)cnn2-c2ccccc2)CC1	-14%
COc1ccc(CC(=O)N2CCCC2C(=O)N2CCC(c3nc4ccncc4[nH]3)C2)cc1 (configuration not stated)	i
CC(C)(C)C(=O)N1CCC(N2CCCC(C(=O)NCc3ccccc3)C2)CC1 (configuration not stated)	3%
Cc1ccc(CSc2ncc(Cl)c(C(=O)Nc3sc4c(c3C(N)=O)CCCC4)n2)cc1	-21%
Cc1cc2oc(C(=O)Nc3sc4c(c3C(=O)NCc3ccco3)CCC4)cc(=O)c2cc1C	32%[activator]
CCN(c1ccccc1)S(=O)(=O)c1ccc2[nH]cc(C(=O)NC3CCCCC3)c(=O)c2c1	-12%
CC(C)c1ccccc1-c1nc(NCc2ccc(-c3cccnc3)cc2)c2[nH]cnc2n1	-11%
CCOc1ccc(-c2csc(N3CCC(C(N)=O)CC3)n2)cc1	-1%
CCOc1cc(C(C)(C)C)ccc1C1=NC(C)(c2ccc(Cl)cc2)C(C)(c2ccc(Cl)cc2)N1C(=O)N1CCN(CCCS(C)(=O)=O)CC1 (configuration not stated)	35%
Cc1ccccc1N1Cc2c(NCc3ccc(F)cc3)ncnc2N(C)CC1=O	-5%
COC1CCCC(C)OC(=O)Cc2cc(O)cc(O)c2C(=O)C1 (configuration not stated)	-9%
